Compound activity: PubChem, several laboratories
PrP UTR inh = inhibition of PrP 5' UTR reporter expression. cell-based PrP 5' UTR mRNA reporter, plate reader. inhibition, % (no concentration beside the values). 340,000 tested, 0.35% active. AID 488862;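 active means every replicate at 50% or more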;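 further: 0 = median of the neutral control wells; tested in H4 reporter cells; numbers are from one replicate; inactives centre near -14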
RN4220 kill = kills Staphylococcus aureus RN4220. S. aureus RN4220 growth, OD600, 16 h. inhibition, % (concentration not given with the values). 330,000 tested, 0.33% active. AID 1259311;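 active means z-score of -3 or lower and OD600 up to 0.18 on both plates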;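 further: plate controls were untreated cells for no effect and reference antibiotic for full effect; stock transfer was 100 nL into about 80 µL; one replicate is shown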
Mtb hypoxia inh = Mtb hypoxia fluorescent reporter inhibition; M. tuberculosis hypoxia-regulated fluorescent reporter, fluorescence; fluorescence inhibition, % (concentration not given with the values); 300,000 tested, 0.1% active;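 active means 35 to 45% if threefold the growth effect, above 45% if 1.5-fold the growth effect; inactive means the rest, general growth blockers included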;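 further: wells of about 50 µL received 100 nL stock; 0% = vehicle wells and 100% = reference inhibitor wells; whole bacteria with a GFP reporter of the hypoxia response; strong numbers were not always called active; many hits fall short of the cut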
ugtP null kill = kills S. aureus RN4220 lacking UgtP. growth inhibition, % (test concentration not listed). AID 1259309. S. aureus RN4220 ugtP deletion, OD600 growth, 16 h; some inactives read as strong as hits. 330,000 tested, 0.54% active;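 active means z-score under -3 and OD600 up to 0.15 on both plates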;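 further: plate controls were untreated wells for no effect and antibiotic for full effect; wells of about 80 µL received 100 nL stock; the first replicate is given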
BJeLR lethal = BJeLR cell viability loss; BJeLR (HRASV12) viability, CellTiter-Glo ATP luminescence, 48 h; reference of the scale not given here; inhibition, % (no concentration beside the values); 300,000 tested, 0.17% active;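 active means replicate mean above 50%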;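 further: 50 nL library stock added to about 25 µL; numbers are from one replicate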
Autofluor counter = counter-screen for toxin protease inhibitors: compound fluorescence | AID 624483 | fluorescence intensity (concentration not given with the values) | 360,000 tested, 3.1% active | compound autofluorescence counterscreen, microsphere flow cytometry; active compounds read high;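 active means at least 3 SD above the mean of all compounds, about 16000 in these data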;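 further: 100 nL of 1 mM stock went into each well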
Mtb hypoxia inh growth = further read-out of Mtb hypoxia inh, marked with its call; growth inhibition, %; measured here: M. tuberculosis growth (absorbance);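 0% = vehicle and 100% = reference antibiotic; read after six days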
The depositor's hits bear a star; x = no result given.

entry	structure	PrP UTR inh	RN4220 kill	Mtb hypoxia inh	Mtb hypoxia inh growth
1	CC(NC(=O)C(=O)NCCC1=CCCCC1)c1ccccc1 (centres undefined)	3	6.1	5	-1
2	Oc1c(Br)cc(Br)cc1C=Nn1c(-c2ccccc2)n[nH]c1=S	x	-5.9	3	-3
3	CCOc1cc(C=C2C(=O)NC(=O)NC2=O)ccc1OS(=O)(=O)c1ccccc1	-18	-3.9	x	x
4	CCOC(=O)c1ccc(-c2cccc(-c3cc(=O)oc4cc(OC)cc(OC)c34)c2)cc1	-8	6.2	4	2
5	CC1(c2ccccc2Cl)NC(=O)N(CC(=O)NCc2ccc3c(c2)OCO3)C1=O (centres undefined)	3	3.0	7	-2
6	COc1ccccc1C(CCNCc1ccc(N(C)C)cc1)c1ccc(OC(C)C)cc1 (centres undefined)	-21	-2.5	-2	15
7	O=C(O)c1ccc(Cl)c(NC(=O)C2CCCN2S(=O)(=O)c2cccc3nsnc23)c1 (centres undefined)	-43	4.8	5	-1
8	CCOc1ccc(NC(=S)N2CCN(S(=O)(=O)c3ccc(C)cc3)CC2)cc1	-9	-1.4	3	-4
9	CC(C)N1CCc2c(sc(NC(=O)c3ccc(S(=O)(=O)N4CCOCC4)cc3)c2C(N)=O)C1	-10	1.1	4	1
10	COC(=O)c1ccc(NC(=O)CSc2ccccn2)cc1	-20	0.8	-1	0
11	Cn1c(N)c(C(=O)COC(=O)CCC2CCCC2)c(=O)n(C)c1=O	3	1.5	-11	8
12	Cn1nc(C(F)(F)F)c(C(=O)Nc2ccc(F)cc2F)c1Sc1cccc(Cl)c1	-7	0.7	1	5

entry	ugtP null kill	BJeLR lethal	Autofluor counter
1	0	-2	2003
2	8	x	x
3	13	-7	3544
4	2	x	3746
5	0	-5	3094
6	-38	13	4173
7	14	7	20420*
8	6	-4	6262
9	4	6	5377
10	0	-1	4356
11	-4	-3	4681
12	8	0	14828

3 entries from above, arranged by length of the SMILES, smallest number first.
entry	structure	PrP UTR inh	RN4220 kill	Mtb hypoxia inh	Mtb hypoxia inh growth
10	COC(=O)c1ccc(NC(=O)CSc2ccccn2)cc1	-20	0.8	-1	0
2	Oc1c(Br)cc(Br)cc1C=Nn1c(-c2ccccc2)n[nH]c1=S	x	-5.9	3	-3
11	Cn1c(N)c(C(=O)COC(=O)CCC2CCCC2)c(=O)n(C)c1=O	3	1.5	-11	8

entry	ugtP null kill	BJeLR lethal	Autofluor counter
10	0	-1	4356
2	8	x	x
11	-4	-3	4681

Carrying on:
entry	structure	PrP UTR inh	RN4220 kill	Mtb hypoxia inh	Mtb hypoxia inh growth
13	S=C(NCCCCc1ccccc1)NCc1ccccc1	2	-5.8	6	3
14	COCCCNC(=S)NNC(=O)c1ccccn1	-4	-1.9	16	8
15	COc1cc(/C=C(/C(=O)c2cccs2)c2nc3ccccc3[nH]2)cc(OC)c1O	-39	11	16	7
16	CC(C)C[C@H](NC(=O)[C@H](Cc1ccccc1)n1c(=O)[nH]c2ccccc2c1=O)C(=O)N1CCC[C@@H]1C(=O)O	-14	2.3	x	x
17	CC1CN(S(=O)(=O)c2cccc(C(=O)Nc3ccccc3N3CCCCC3)c2)CC(C)O1 (centres undefined)	-11	-0.9	15	7
18	CC(=O)c1ccc(NC(=S)NC(=O)Cc2ccc(Cl)cc2)cc1	-23	0.4	6	-3
19	CC(/C=C/c1ccccc1)=NNC(=O)CNC(=O)c1ccc2c(c1)OCO2	x	-7.4	10	6
20	CCCCn1cnc(C(=O)OCC)c1N	-10	1.0	1	8
21	CN(C(=O)CCN1C(=O)/C(=C/c2ccccc2)SC1=S)C1CCS(=O)(=O)C1 (centres undefined)	-38	5.1	2	-3
22	Cc1cc(Nc2ccc(C(C)C)cc2)n2ncnc2n1	-9	3.5	x	x
23	CCCCCCn1c(O)c(C=NCCN2CCOCC2)c(=O)[nH]c1=O	-22	1.2	6	2
24	CCC(Sc1nccn1C)C(=O)Nc1cccc2ccccc12 (centres undefined)	-13	0.6	7	-1

entry	ugtP null kill	BJeLR lethal	Autofluor counter
13	7	-1	4698
14	5	-2	4291
15	-3	0	10232
16	2	-2	5976
17	-9	-11	6486
18	5	6	3875
19	-4	x	x
20	5	2	2326
21	7	1	5255
22	7	-6	5834
23	3	1	2500
24	5	-16	3433

(continued)
entry	structure	PrP UTR inh	RN4220 kill	Mtb hypoxia inh	Mtb hypoxia inh growth
25	Cc1c(C=NNC(=O)c2cccnc2)c2ccccc2n1Cc1ccccc1	x	1.1	4	1
26	COc1ccc(N(CC(=O)N/N=C/c2ccco2)S(=O)(=O)c2ccccc2)cc1	-14	x	x	x
27	COCCNC(C(=O)Nc1ccc(C)cc1[N+](=O)[O-])c1ccccc1 (centres undefined)	-19	7.6	15	6
28	CC(NC(=O)c1ccccc1)C(=O)NN=Cc1cccc([N+](=O)[O-])c1 (centres undefined)	x	5.2	9	8
29	O=C(Nc1ccccc1F)Nc1ccc([N+](=O)[O-])cc1Cl	-43	-7.7	9	5
30	COc1ccc(CNC(=O)Nc2ccc(OC)cc2)cc1	-39	-0.2	5	2
31	O=C(CCNC(=O)C1CCN(S(=O)(=O)c2ccccc2)CC1)NCc1ccc(Cl)c(Cl)c1	-16	3.3	4	5
32	CCN1C(=NCCc2ccc(Br)cc2)NC(c2ccccc2)C(C(=O)OC)C1C (centres undefined)	x	-1.6	-12	9
33	COC1CCCN(C(=O)c2ccc(OC3CCN(S(=O)(=O)N(C)C)CC3)cc2)C1 (centres undefined)	-6	1.6	6	0
34	O=C(NCc1ccccn1)c1cc(-c2ccc(Cl)cc2)oc1C(F)(F)F	x	8.8	-9	9
35	COCCNC(=O)c1ccccc1-c1ccccc1C(=O)O	-14	-0.9	x	x
36	Cc1ccc2nc(NC(=O)c3ccc(-c4nc5ccccc5s4)s3)sc2c1	-6	-2.2	6	4

entry	ugtP null kill	BJeLR lethal	Autofluor counter
25	0	x	x
26	x	-6	9410
27	8	2	4273
28	-4	x	x
29	-15	5	2237
30	2	-4	6026
31	3	3	5374
32	-25	x	x
33	1	-13	5751
34	-18	1	5409
35	-2	2	2182
36	6	x	5363

Compounds from the list above that have a furan ring, fused or not (two):
entry	structure	PrP UTR inh	RN4220 kill	Mtb hypoxia inh	Mtb hypoxia inh growth
26	COc1ccc(N(CC(=O)N/N=C/c2ccco2)S(=O)(=O)c2ccccc2)cc1	-14	x	x	x
34	O=C(NCc1ccccn1)c1cc(-c2ccc(Cl)cc2)oc1C(F)(F)F	x	8.8	-9	9

entry	ugtP null kill	BJeLR lethal	Autofluor counter
26	x	-6	9410
34	-18	1	5409

Limited to RN4220 kill, for 5 of the compounds above:
#	Molecule	RN4220 kill
29	O=C(Nc1ccccc1F)Nc1ccc([N+](=O)[O-])cc1Cl	-7.7
30	COc1ccc(CNC(=O)Nc2ccc(OC)cc2)cc1	-0.2
31	O=C(CCNC(=O)C1CCN(S(=O)(=O)c2ccccc2)CC1)NCc1ccc(Cl)c(Cl)c1	3.3
32	CCN1C(=NCCc2ccc(Br)cc2)NC(c2ccccc2)C(C(=O)OC)C1C (centres undefined)	-1.6
33	COC1CCCN(C(=O)c2ccc(OC3CCN(S(=O)(=O)N(C)C)CC3)cc2)C1 (centres undefined)	1.6

Next part.
entry	structure	PrP UTR inh	RN4220 kill	Mtb hypoxia inh	Mtb hypoxia inh growth
37	NS(=O)(=O)c1ccc(NC(=O)c2cccc3ccccc23)cc1	-22	1.0	2	15
38	CC(=O)c1c(C)[nH]c(C(=O)OCC(=O)Nc2cc(S(=O)(=O)N3CCCCC3)ccc2C)c1C	-17	3.5	13	2
39	O=C(NN=Cc1cccnc1)c1cc(-c2ccc(Cl)s2)[nH]n1	x	2.1	4	13
40	COc1ccc(NC(=O)c2sc(-c3ccccc3)nc2C)c(OC)c1	-25	3.8	2	-3
41	CCCOc1ccccc1C1NC(=O)NC(C)=C1C(=O)OCc1ccccc1 (centres undefined)	-22	6.0	6	-2
42	COc1ccccc1C=CCN1CCCC(CCC(=O)NCc2ccc(F)c(F)c2)C1 (centres undefined)	x	-0.8	0	15
43	CN1CCN(NC(=O)c2cccc3ccccc23)CC1	-4	7.7	5	-1
44	Cc1ccc(CNCc2cccnc2)s1	-6	3.1	10	6
45	COc1cc(C=NNC(=O)c2cccnc2)ccc1OC(=O)c1ccccc1Cl	x	4.1	5	6
46	Cc1cc(C(=O)O)cc(S(=O)(=O)Nc2ccccc2C(=O)NC2CC2)c1C	-9	2.8	14	-6
47	COc1ccc(-c2csc(C3=C(O)CN(C(C)C)C3=N)n2)cc1OC	3	8.6	10	10
48	CCOc1ccc(NC(=O)c2ccc(-n3cccn3)nc2)cc1	-19	5.7	11	9

entry	ugtP null kill	BJeLR lethal	Autofluor counter
37	6	1	4220
38	1	-1	10337
39	7	x	x
40	2	-13	3515
41	-12	-2	10470
42	5	x	x
43	5	3	8536
44	0	6	4237
45	0	x	x
46	12	x	5323
47	-14	0	4898
48	-3	1	4497

More results:
entry	structure	PrP UTR inh	RN4220 kill	Mtb hypoxia inh	Mtb hypoxia inh growth
49	Cc1ccc(NC(=O)NNC(=O)c2cccs2)cc1	-17	x	x	x
50	CCN(CC)S(=O)(=O)N1CCC(C(=O)NC2CCCC2)CC1	-3	3.3	6	-7
51	Cc1onc(-c2ccccc2)c1C(=O)N1CCCc2ccccc21	-27	11	5	4
52	CC(Oc1ccc2oc3ccccc3c2c1)C(=O)NC12CC3CC(CC(C3)C1)C2 (centres undefined)	-24	-5.6	1	-4
53	Cc1ccc(C(C(=O)NC(C)(C)C)N(Cc2cccs2)C(=O)c2csnn2)cc1 (centres undefined)	-12	5.4	1	0
54	Cc1ccc(OCC(=O)Nc2ccc(C)c(F)c2)c([N+](=O)[O-])n1	-86	-1.7	10	6
55	COc1cccc(C(=O)NN=C(C)c2cccc(NC(=O)c3ccc(F)cc3)c2)c1OC	x	3.2	5	6
56	CN1C(=O)C(C)(C)c2cc(S(=O)(=O)NCC3CCC(C(=O)NC4CCCCC4)CC3)ccc21 (centres undefined)	-21	2.2	3	9
57	CCCOc1ccc(N2C(=O)CC(N(CCc3ccc(OC)c(OC)c3)C(=O)c3ccccc3)C2=O)cc1 (centres undefined)	-4	0.2	1	-5
58	CN1CCN(CCCNC(=O)c2ccc3c(c2)N(Cc2ccccc2)CCS3)CC1	-15	-1.8	x	x
59	CCc1ccccc1NC(=O)CCCN1C(=O)C2CC=CCC2C1=O (centres undefined)	6	0.9	6	6
60	O=C(Cn1c(C(=O)NCCCN2CCOCC2)cc2sccc21)c1ccccc1	-3	-1.1	-2	22

entry	ugtP null kill	BJeLR lethal	Autofluor counter
49	x	1	8835
50	12	1	16029
51	-4	-4	12695
52	-19	-6	2506
53	8	4	3051
54	13	x	5845
55	6	x	x
56	7	1	5142
57	3	3	5291
58	1	-6	5083
59	3	0	5823
60	-1	4	24194*

The results go on.
entry	structure	PrP UTR inh	RN4220 kill	Mtb hypoxia inh	Mtb hypoxia inh growth
61	Cn1c(=O)n(C)c2cc(NS(=O)(=O)c3ccc(Cl)s3)ccc21	-2	13	12	9
62	Cn1ccnc1C(OC(=O)c1ccccc1)C(F)(F)F (centres undefined)	-14	3.4	3	9
63	c1ccc(C2C3CN(CC4CCCCC4)C(c4ccccc4)C34CC2(c2ccccc2)C4)cc1 (centres undefined)	x	-4.2	13	4
64	Fc1ccc(NC(=S)N2CCc3[nH]c4ccccc4c3C2)cc1	-11	1.2	-4	0
65	CCOc1cc(C(=S)N2CCCC2)ccc1OCC(=O)Nc1c(C)cc(C)cc1C	-19	11	x	x
66	CCc1ccc(NC(=O)C2CCCN(S(=O)(=O)c3ccc4[nH]c(=O)ccc4c3)C2)cc1 (centres undefined)	-21	x	x	x
67	CCOC(=O)C1(Cc2cccc(Cl)c2)CCCN(C(=O)c2ccnn2C)C1 (centres undefined)	-39	7.4	8	0

entry	ugtP null kill	BJeLR lethal	Autofluor counter
61	3	-2	3829
62	14	-11	3311
63	0	x	x
64	-2	1	4105
65	-1	1	3122
66	x	-7	5136
67	3	4	6885
